liver stage – Plasmodium liver-stage growth inhibition, dose response, imaging, Malaria Box, P. yoelii, HepG2-A16-CD81EGFP (AID 602156) | P. yoelii liver stage in HepG2-A16-CD81EGFP, imaging; first-round cut-off not given here | calls after a first round at 10 µM; hits with a dose series show IC50 in µM | 5,700 tested, 4.8% active; in the data active = a potency from the dose series;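 note: infected cells exposed to compound for 48 hours before fixation; stained parasite area by imaging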
Numbers without * were called inactive; i = inactive. Only part of the results is shown; the hit share may differ from the screen's.

Structure | liver stage
CC[n+]1ccccc1/C=C/c1ccc(N(C)C)cc1 | i
Cc1ccc(-n2c(C)cc(C=C3SC(=Nc4ccc(Cl)cc4)NC3=O)c2C)cc1 | i
Cc1ccc(S(=O)(=O)NCCCCNc2ccnc3cc(Cl)ccc23)cc1 | i
COc1ccc(CN2CCN(C(=O)c3sc4ncn(Cc5ccccc5F)c(=O)c4c3C)CC2)c(OC)c1OC | i
CC(NC(=O)C(=O)N1CCCCC1)C(c1cccs1)N1CCOCC1 (stereo not given) | i
CCOC(=O)C1=C(C)NC2=C(C(=O)C(C(=O)OCC)C(c3cccc(OC)c3)C2)C1c1ccc(OC)c(OC)c1 (stereo not given) | i
Cc1ccc(C=Cc2ccc3ccccc3[n+]2C)cc1 | i
CCCCCCN(C(=O)COc1ccc(Cl)cc1)C(CC)c1nc2ccccc2c(=O)n1-c1cccc(Cl)c1 (stereo not given) | i
N#C/C(=C\c1cn(Cc2ccccc2Cl)c2ccccc12)c1nn(CCO)c(N)c1C#N | i
CCOC(=O)c1sc2ncnc(NCc3ccc(F)cc3)c2c1C | i
CCCCN(C)CCCNC(=O)c1ccc(Cl)c(NC(=O)Nc2ccc(Cl)c(Cl)c2)c1 | i
CN(C)c1cc(NC(=O)Nc2ccccc2)c2ccccc2n1 | i
CC(=O)Nc1nc(C)c(-c2csc(Nc3ccc(Br)cc3)n2)s1 | i
CN(C)C(=O)C1C2NC(=S)N(c3ccccc3)C1(C)Oc1ccccc12 (stereo not given) | i
CC(C)CNC(=O)c1cnc(NCCCN2CCCCC2C)nc1Nc1ccccc1 (stereo not given) | i
CC1=C(CCN(CCCN(C)C)CCCN(C)C)C(C)(C)CCC1 | i
NCCCCCCNC(=S)Nc1ccccc1 | i
Cc1ccc(C)c(Nc2nc(NCc3ccco3)c3ccccc3n2)c1 | i
CCc1cccc(NC(=S)N2CCCC2c2ccccc2C(F)(F)F)c1 (stereo not given) | i
CC[n+]1c(/C=C/N(C)c2ccccc2)sc(-c2ccccc2)c1-c1ccccc1 | i
COc1ccc(S(=O)(=O)ON=C2C=C(C(C)C)C(=O)C=C2C)cc1 | i
Ic1ccc(NCc2cn3ccccc3n2)cc1 | i
CC[n+]1c(/C=C/C=C2/N(C)c3ccccc3C2(C)C)sc2ccccc21 | i
CCOc1ccccc1-n1c(N)c(C(=O)Nc2ccc(F)cc2)sc1=S | i
Cc1cccc(C)c1OCC(=O)Nc1ccccc1O | i

Structures shown so far with a Cl atom, in the order listed:
Structure | liver stage
Cc1ccc(-n2c(C)cc(C=C3SC(=Nc4ccc(Cl)cc4)NC3=O)c2C)cc1 | i
Cc1ccc(S(=O)(=O)NCCCCNc2ccnc3cc(Cl)ccc23)cc1 | i
CCCCCCN(C(=O)COc1ccc(Cl)cc1)C(CC)c1nc2ccccc2c(=O)n1-c1cccc(Cl)c1 (stereo not given) | i
N#C/C(=C\c1cn(Cc2ccccc2Cl)c2ccccc12)c1nn(CCO)c(N)c1C#N | i
CCCCN(C)CCCNC(=O)c1ccc(Cl)c(NC(=O)Nc2ccc(Cl)c(Cl)c2)c1 | i

Further entries
Structure | liver stage
CCCOc1ccc(Cc2c(C)[nH]c3ccc(Br)cc3c2=O)cc1 | i
CCCCNc1cc(C)nc(NCc2ccccc2)n1 | i
O=C(Nc1cc(Cl)cc(Cl)c1)C1C2C=CC3(O2)C1C(=O)N(CCC1=CCCCC1)C3C(=O)NC1CCCCC1 (stereo not given) | i
CN(C)CCCNc1ncnc2c1[nH]c1ccc(Br)cc12 | i
C=CCOc1cccc(C(Nc2cccc(C)n2)c2ccc3cccnc3c2O)c1 (stereo not given) | i
O=C(Cn1nc([N+](=O)[O-])nc1Br)NC1CCCCC1 | i
COc1ccc(-c2csc(Nc3cccc(Cl)c3C)n2)cc1OC | i
C(#Cc1ccccc1)CN(Cc1ccccn1)Cc1ccccn1 | i
Cc1c2ccccc2cc(Cc2ccccc2)[n+]1C | i
CCOC(=O)c1nnn(-c2nonc2N)c1-c1ccc(OC)c(OC)c1 | i
COc1cc(NC(=O)Cc2ccccc2OC)cc(OC)c1 | i
C=CCSc1nn2c(=O)c(C)nnc2s1 | i
COC(=O)c1cccc(-c2cc(Cl)c3c(c2)CC(CNC(=O)c2c(C)noc2C)O3)c1 (stereo not given) | i
CCN1C(=Cc2ccc3cc(C)ccc3[n+]2C)Sc2ccc3ccsc3c21 | i
COc1cc(C=NNC(=O)c2ccc(C(=O)NN=Cc3ccc(O)c(OC)c3)cc2)ccc1O | i
CCc1ccc(C(=O)C[n+]2cc(-c3ccc(C)cc3)n3c2CCC3)cc1 | i
C[n+]1c(/C=C/c2ccc(Cl)c(Cl)c2)ccc2ccccc21 | i
COc1cccc(Cn2c3cc(C)sc3c3cnn(C)c(=O)c32)c1 | i
Cc1ccc(-c2cc3c(nn2)-c2ccccc2C3=O)cc1 | i
CC(NCc1ccccc1)c1cc(Cl)ccc1O (stereo not given) | i
CCOC(=O)c1c(C)n(-c2ccccc2)c2ccc(OC(=O)C3CC3)cc12 | i
CC(C)CNC(=O)c1cnc(NCCCN2CCCCC2C)nc1NCC1CCCCC1 (stereo not given) | i
COc1cccc(C=C2SC(=Nc3ccccc3)NC2=O)c1OC | i
COc1cc2c(cc1O)CC[n+]1cc3c(OC)c(OC)ccc3cc1-2 | i
CCCN(C(=O)Nc1c(C(C)C)cccc1C(C)C)C(CC)c1nc2ccccc2c(=O)n1-c1cccc(C)c1 (stereo not given) | 6.3µM*

(further entries)
Structure | liver stage
CCC(=O)N1CCc2cc(Br)cc(S(=O)(=O)N3CCCCC3CC)c21 (stereo not given) | i
COc1cc2nc(N3CCN(c4nc(N)c5cc(OC)c(OC)cc5n4)CC3)nc(N)c2cc1OC | i
CCN(CC)CCCC(C)Nc1cc(/C=C/c2ccccc2Cl)nc2cc(Cl)ccc12 (stereo not given) | i
Cc1ccccc1CN1CCN(CC=Cc2ccccc2)CCC1=O | i
CCOC(=O)c1cnc2c(OC)cccc2c1Nc1ccc(C(C)=O)cc1 | i
Cc1ccc(-c2c[n+]3ccccc3n2CC(=O)c2ccc(Cl)cc2)cc1[N+](=O)[O-] | i
CCOC(=O)c1cn(CC)c2cc(N(C)CCc3ccc(OC)c(OC)c3)c(F)cc2c1=O | 0.042µM*
CC1CN(C)C(C)CC1=NOC(=O)c1ccc(Cl)c(Cl)c1 (stereo not given) | i
O=C(NC(c1ccccc1)c1ccccc1)N(Cc1ccccc1)CC(O)CN(CCN1CCOCC1)S(=O)(=O)Cc1ccccc1 (stereo not given) | i
N#CC(C#N)C(C(Sc1ccc([N+](=O)[O-])cc1)=C(O)c1ccccc1)c1cccs1 (stereo not given) | i
Cc1ccc(S(=O)(=O)N=C2C=C(Sc3ncn[nH]3)C(=O)c3ccccc32)cc1 | i
CN1CCN(c2nc(NN=Cc3cc(Br)c(O)cc3O)nc(Nc3ccc([N+](=O)[O-])cc3)n2)CC1 | i
Cc1cccn2c(NCc3ccccc3)c(-c3ccccc3OC(=O)CCCCl)nc12 | i
CCN(CC)c1ccc(NC(=O)c2cccs2)cc1 | 0.4µM*
OCCNc1nc(Nc2cccc(O)c2)nc2ccccc12 | i
ClC12CC3CC(C1)CC(n1nnc4ccccc41)(C3)C2 | i
CCN1CCN(c2cc(C)c3cc(NC(=O)c4cc(=O)c5ccccc5o4)ccc3n2)CC1 | i
CC(=Cc1sc2ccc3occc3c2[n+]1CCO)C=C1Sc2ccc3ccoc3c2N1CCO | i
CCC(c1nc2ccccc2c(=O)n1-c1ccccc1OC)N(CCc1ccccc1)C(=O)Nc1ccccc1OC (stereo not given) | i
CCOC(=O)c1c(NC(=O)C(C)Sc2nnc(CNC(=O)c3ccco3)n2-c2cccc(Cl)c2)sc2c1CCCC2 (stereo not given) | i
COc1ccc2nc3cc(Cl)ccc3c(NCCN(CCN)CCN)c2c1 | i
N#Cc1c2c(c(N3CCN(Cc4ccccc4)CC3)n3c1nc1ccccc13)CCC2 | i
CCCCNC(=O)C(CC)Sc1nnc(-c2ccc(C)cc2)c(-c2ccc(C)cc2)n1 (stereo not given) | 0.29µM*
C[N+]1(CCOC(=O)CCC(=O)OCC[N+]2(C)CCCCCC2)CCCCCC1 | i
Clc1cccc(CSc2nc(Nc3ccc4c(c3)OCO4)c3ccccc3n2)c1 | i

Following part:
Structure | liver stage
O=C(Cn1ccc(=NCc2ccccc2)cc1)c1cccc(Br)c1 | i
N=c1ccc2nc3ccc(N)cc3sc-2c1 | i
COC(=O)c1cccc(NC(=O)/C(=C\c2cccc([N+](=O)[O-])c2)NC(=O)c2ccccc2OC)c1 | i
COc1cccc(C2C(C(=O)Nc3ccccc3)=C(C)N=c3sc(=Cc4c[nH]c5ccccc45)c(=O)n32)c1 (stereo not given) | i
Nc1ccc(Nc2ccc(N)cc2)cc1 | i
CCCN(Cc1cc(OC)c2c(c1)OCO2)CC1CC1 | i
O=c1c2ccccc2[nH]c2cc(Cl)ccc12 | i
CN(Cc1ccsc1)C(=O)CCc1nnc(CCCc2ccccc2)o1 | i
CCc1nn(-c2ccccc2)c2nc(-c3cc(Br)ccc3O)c3cc(OC)c(OC)cc3c12 | i
COc1ccccc1N1CCN(c2ccc(NC(=O)c3ccc(F)cc3)cc2C(=O)N2CCCC2)CC1 | i
c1ccc(CSc2nc3ccncc3[nH]2)cc1 | i
Oc1ccc(-c2ccccc2)cc1CN1CCCCC1 | i
O=C(NC(=S)Nc1ccc(NC(=O)c2cccs2)cc1)c1ccco1 | i
O=[N+]([O-])c1cccc(C(Nc2nccs2)c2ccc3cccnc3c2O)c1 (stereo not given) | 0.36µM*
CCCCN1C=Nc2cc(C(=O)NCc3ccc(OC)cc3)ccc2C1 | i
c1ccc(-c2nc3cc4ccccc4cc3nc2-c2ccsc2)cc1 | i
O=c1c2c3c(sc2ncn1CC1CCCCC1)CC(NCc1cccnc1)CC3 (stereo not given) | i
CCCCCCN(C(=O)c1cccc([N+](=O)[O-])c1)C(CC)c1nc2ccccc2c(=O)n1-c1ccccc1OC (stereo not given) | i
C[N+](C)(C)c1ccc2cc(Br)c3ccccc3c2c1 | i
CC(C)(C)CC(C)(C)Nc1c(-c2ccccc2OC(=O)c2cccc(Br)c2)nc2ccccn12 | i
OC(CNC1CCCCC1)Cn1c2ccc(Cl)cc2c2cc(Cl)ccc21 (stereo not given) | i
O=C(O)Cn1cnc2nc3n(c2c1=O)CCC3 | i
OC(CNCc1ccco1)Cn1c2ccc(Cl)cc2c2cc(Cl)ccc21 (stereo not given) | i
CCOC(=O)C1=C(O)/C(=C/c2cc(C)n(-c3ccc(C)cc3)c2C)N=C1C | i
COc1ccc(-c2c[n+](CC(=O)c3ccccc3Cl)c3n2CCC3)cc1 | i

Next structures.
Structure | liver stage
Cc1ccc(Nc2nc(NN=Cc3ccc(-c4ccc([N+](=O)[O-])cc4)o3)nc(Nc3ccccc3)n2)c(C)c1 | i
CCCCCN(C(=O)c1ccc2ccccc2c1)C(CC)c1nc2ccccc2c(=O)n1-c1ccccc1OC (stereo not given) | i
Cc1cc(Nc2cccc3ccccc23)nc(Nc2cccc3ccccc23)n1 | i
C[n+]1cccc(CNC2=C(Cl)C(=O)c3ccccc3C2=O)c1 | i
O=C(CC1OC(=O)c2ccccc21)c1ccc(Cl)cc1 (stereo not given) | i
CCCn1c(=N)c(C(=O)NC(C)c2ccccc2)cc2c(=O)n3cccc(C)c3nc21 (stereo not given) | i
CCCCOc1ccc(N(C(C)=O)C2=C(N3CCOCC3)C(=O)c3ccccc3C2=O)cc1 | 1.8µM*
CCOc1ccc(C(=O)N2CCN(Cc3ccccc3)CC2)cc1 | i
CC1=C(C(=O)Nc2ccc(C)cc2C)C(c2ccc([N+](=O)[O-])cc2)n2ncc(C(=O)Nc3ccc(F)cc3)c2N1 (stereo not given) | i
CCOC(=O)c1cccc(OC(=O)c2ccccc2)c1 | i
Cc1sc2nc3c4ccccc4c(NCCCN(C)C)nn3c(=O)c2c1C | i
CC1(C)N=C(N)N=C(N)N1c1ccccc1 | 0.1µM*
Cc1cccc2cc(CNC3CCOC(C)(C)C3)c(N3CCCC3)nc12 (stereo not given) | i
Oc1ccccc1CN1CCN(C(c2ccccc2)c2ccccc2)CC1 | i
CCC(CO)NCC(O)Cn1c2ccc(Br)cc2c2cc(Br)ccc21 (stereo not given) | i
COc1cccc(C(=O)N(CCCC(C)Nc2cc(OC)cc3cccnc23)Cc2ccc(F)cc2)c1 (stereo not given) | i
O=c1c2c(nc3cc(-c4ccc(Cl)cc4)[nH]n13)CCCC2 | i
O=c1[nH]nc(SCc2nc3ccccc3s2)n1Cc1ccco1 | i
COc1ccc(-n2c(CNc3cccc(C(F)(F)F)c3)n[nH]c2=S)cc1 | i
CCCCCOC(=O)C1=C(C)NC2=C(C(=O)CC(C)(C)C2)C1c1ccncc1 (stereo not given) | i
CN(C)c1oc(-c2ccc(Cl)cc2Cl)nc1[P+](c1ccccc1)(c1ccccc1)c1ccccc1 | 0.13µM*
Fc1ccccc1Nc1nc(NCC2CCCO2)c2ccccc2n1 (stereo not given) | i
CCOC(=O)CN(C)Cc1ccc2c(NC(=O)c3ccc(C)s3)c(C(=O)OC)sc2n1 | i
COC(=O)c1sc2nc(CN(C)CC(C)C)ccc2c1NC(=O)c1ccc(C)s1 | i
CC[n+]1c(C=CC=C2N(C)c3ccccc3C2(C)C)n(-c2ccccc2)c2ccccc21 | i
COc1nc(C)nc(NC(=O)NC(=O)c2c(OC)ccc([N+](=O)[O-])c2OC)n1 | i

An excerpt from above in order of length of the SMILES, rising.
Structure | liver stage
Cc1cc(Nc2cccc3ccccc23)nc(Nc2cccc3ccccc23)n1 | i
CCOC(=O)CN(C)Cc1ccc2c(NC(=O)c3ccc(C)s3)c(C(=O)OC)sc2n1 | i
CCCCCN(C(=O)c1ccc2ccccc2c1)C(CC)c1nc2ccccc2c(=O)n1-c1ccccc1OC (stereo not given) | i
